# Assay outcomes as filed in PubChem.
# Calb FLC = C. albicans growth inhibition with fluconazole, primary screen, CaCi-2 strain, Alamar Blue fluorescence; C. albicans CaCi-2 (fluconazole-resistant clinical isolate) + fluconazole, 48 h; growth inhibition, % (no concentration beside the values); actives 0.57% (n = 300,000);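 active = most replicates above 75%; inconclusive = exactly half above 75%; inactive = most below 75%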;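 note: all wells also contain fluconazole at 8 µg/ml as a sub-toxic cotreatment; 0% = median of DMSO wells and 100% = median of geldanamycin control wells; wells of about 8 µL received 7.5 nL stock; the first replicate is given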
# Beta cell apopt = inhibitors of cytokine-induced beta cell apoptosis, primary screen, luminescence. INS-1E cytokine-induced death, ATP luminescence, 48 h; percent of positive-control rescue, neutral wells zero. protection from apoptosis, % (test concentration not listed). actives 0.8% (n = 300,000). AID 435005, 2010;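 active = all replicates at 75% or more, or half of them and the mean; inconclusive = half reach 75% but not the mean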;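 note: 0% = cytokine-treated negative control wells and 100% = positive control rescue; higher means more ATP so stronger rescue from cytokine killing; wells of about 40 µL received 100 nL stock; the first replicate is given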
# B2AR ag = beta2AR agonists driving receptor internalization, primary screen, cell-based, FAP fluorogen, flow cytometry | Beta-2 adrenergic receptor (Homo sapiens), P07550 | Am2.2-beta2AR cells; reference of the scale not given here | response, % (no concentration beside the values) | actives 0.43% (n = 340,000);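 active = response above a set limit, near 3 SD of response in nonfluorescent compounds, cut at about 42% in these data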;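 note: stock transfer was 100 nL into about 11 µL; a reference agonist was the positive control; negative values mostly stem from fluorescent compounds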
# Target sequence (P07550 whole entry, looked up): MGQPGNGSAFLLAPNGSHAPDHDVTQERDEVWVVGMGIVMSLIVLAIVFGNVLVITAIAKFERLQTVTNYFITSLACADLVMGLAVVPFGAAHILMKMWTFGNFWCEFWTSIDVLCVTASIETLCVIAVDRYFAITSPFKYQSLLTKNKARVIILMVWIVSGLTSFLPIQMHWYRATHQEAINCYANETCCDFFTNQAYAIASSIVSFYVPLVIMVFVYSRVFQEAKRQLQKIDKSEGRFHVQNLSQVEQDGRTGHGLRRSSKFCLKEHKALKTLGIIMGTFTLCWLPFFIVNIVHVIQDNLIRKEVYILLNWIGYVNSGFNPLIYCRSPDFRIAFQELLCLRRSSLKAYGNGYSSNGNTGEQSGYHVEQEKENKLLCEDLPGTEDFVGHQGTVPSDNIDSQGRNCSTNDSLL
# LANA-H2A inh = blockers of LANA interaction with H2A/H2B – biochemical, FP readout, HTS, primary screen; Protein LANA1 (Human herpesvirus 8 type P (isolate GK18)), Q9QR71; cell-free LANA-H2A/H2B peptide, fluorescence polarization; actives 0.6% (n = 320,000); inhibition, % (concentration not given with the values); in the data active = inhibition mostly above about 10%, no sharp cut-off; inactive = mostly below about 6.7%;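 note: stock transfer was 7.5 nL into about 10 µL; 0% = median of vehicle wells and 100% = median of positive control wells; one replicate is shown; the record names a cut of 25% in any replicate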
# RanGTP-Impb inh = inhibitors of RanGTP-importin-beta interaction, primary screen, biochemical, FRET, CFP-Ran, YFP-importin-beta, homogeneous | actives 1.1% (n = 300,000) | Ran GTPase (GTP-bound) - importin-beta complex | cell-free CFP-Ran/YFP-importin-beta FRET ratio | inhibition, % (no concentration beside the values);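 active = most replicates above 15%; inconclusive = exactly half above 15%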;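 note: 0% = DMSO wells and 100% = Ran loaded with GDP instead of GTP; wells of about 40 µL received 100 nL stock; the first replicate is given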
# UCH37 inh = inhibitors of human UCH37 deubiquitinase, primary screen, biochemical, Ub-AMC cleavage, fluorescence. Ubiquitin carboxyl-terminal hydrolase isozyme L5 (Homo sapiens), Q9Y5K5. purified proteasome/UCH37. inhibition, % (test concentration not listed). actives 0.33% (n = 330,000). AID 588478, 2011;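 active = mean of two replicates above 20%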;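 note: 0% = compound-free wells with enzyme and 100% = wells lacking proteasome; stock transfer was 100 nL into about 20 µL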
# Target sequence (Q9Y5K5 whole entry, looked up): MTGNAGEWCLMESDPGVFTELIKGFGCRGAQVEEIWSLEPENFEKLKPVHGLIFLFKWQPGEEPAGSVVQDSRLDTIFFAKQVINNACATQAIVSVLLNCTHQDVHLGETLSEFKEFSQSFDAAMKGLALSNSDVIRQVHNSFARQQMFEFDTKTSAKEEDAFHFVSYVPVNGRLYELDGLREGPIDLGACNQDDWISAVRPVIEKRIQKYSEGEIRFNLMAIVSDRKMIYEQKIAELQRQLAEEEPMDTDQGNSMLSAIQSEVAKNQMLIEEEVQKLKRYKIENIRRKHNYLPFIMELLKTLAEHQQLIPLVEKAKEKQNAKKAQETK
#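 Test system – human UCH37 enzyme supplied as purified proteasome complex · Incubation – 30 min preincubation with enzyme, 25 min cleavage at room temperature · Detection – AMC fluorescence from Ub-AMC cleavage, excitation 355 nm, emission 460 nm · Benchmarks – no-proteasome wells (full inhibition) and compound-free wells (no inhibition)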
# A1 inh = caspase 3/7 activation in MEF A1-2A-BIM cells, primary screen, A1 inhibitor project, cell-based, luminescence, HTS | Caspase-Glo 3/7 luminescence, 3 h; percent of clofoctol response, vehicle zero | actives 0.066% (n = 330,000) | caspase activation, % (no concentration beside the values);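 active = over half of replicate activation scores above 10%, or exactly half above 10 with the replicate mean above 10; inconclusive = replicate mean below 10 yet half the replicates above 10; inactive = over half of replicates below 10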;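 note: wells of about 30 µL received 50 nL stock; many hits fall short of the cut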
# T cruzi inh = inhibitors of intracellular T. cruzi growth, primary screen, luminescence, NIH3T3 host cells; T. cruzi beta-gal in NIH3T3, 90 h; inhibition, % (test concentration not listed); actives 1.4% (n = 300,000); AID 1885, 2009;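 active = mean inhibition across valid replicates above about 55%, limit read from the data; inconclusive = mean below that limit but half or more replicates reach it; inactive = mean below it, under half of replicates reach it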;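 note: signal also drops with host cell toxicity which is not excluded here; 0% = plate median of DMSO wells and 100% = zero luminescence signal; higher percent means less beta-gal luminescence so fewer parasites; stock transfer was 50 nL into about 50 µL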
# The depositor's hits bear a star; u = inconclusive; x = no result given.
nr	Molecule	Calb FLC	Beta cell apopt	B2AR ag	LANA-H2A inh	RanGTP-Impb inh	UCH37 inh	A1 inh	T cruzi inh
1	CCOC(=O)c1cc(C(C)C)sc1NC(=O)COC(=O)CCS(=O)(=O)c1ccccc1	4	-8	13	-29	0.3	0.9	-0.3	0
2	COc1ccc(-c2cnc3ccccc3n2)cc1NC(=O)CNC(=O)c1ccccc1	8	-4	-3	2.3	2.3	-67	0.2	35
3	CCN(CC)c1ccc(CN(C(=O)c2cc(OC)c(OC)c(OC)c2)C2CCS(=O)(=O)C2)cc1 (stereo unspecified)	-11	5	-12	-6.5	-1.1	-0.8	0.2	6
4	COc1ccccc1N1CCN(C(=O)CSc2nnc3n2C(C)(C)Cc2ccccc2-3)CC1	-17	x	13	x	0.3	6.0	x	x
5	CCOc1ccc(NC(=S)NCCCN2CCN(c3ccc(OC)cc3)CC2)cc1	-7	0	-2	-4.4	0.2	1.0	0.2	10
6	O=C(COc1ccc(NS(=O)(=O)c2ccc(F)cc2)cc1)N1CCOCC1	-12	-3	6	3.5	1.3	0.4	0.1	-2
7	CC(C)c1ccc(-c2nc3c([nH]2)c(=O)n(C)c(=O)n3C)cc1	-3	5	-10	-1.5	-1.2	-53	0.5	-4
8	COc1ccc(CCN(C)C2CCCN(C(=O)c3ccnn3C)C2)cc1OC (stereo unspecified)	7	-1	2	-4.5	2.3	0.4	0.9	21
9	CC12CCC(C(=O)N(c3ccc(Cl)cc3)C1=O)C2(C)C (stereo unspecified)	6	2	7	-4.4	7.5	0.2	-0.4	2
10	Cc1cccc(CSc2nc3ccncc3n2CC(=O)Nc2cc(C)cc(C)c2)c1	11	1	-10	-3.2	-0.1	1.8	0.6	41
11	O=C(NCc1ccccc1)Nc1cccn(Cc2ccccc2Cl)c1=O	21	-2	-9	-2.1	-0.6	-6.6	-0.7	24
12	Cc1ccc(S(=O)(=O)N2CCN(S(=O)(=O)c3ccc(C)cc3)C2)cc1	5	-6	-17	-1.4	-2.2	3.0	1.2	8
13	COc1ccc(-c2nc(-c3cccc(C(F)(F)F)c3)no2)cc1OC	7	-4	0	1.1	-2.7	5.4	1.1	-9
14	NS(=O)(=O)c1ccc(CCNc2nc(C(F)(F)F)nc3ccccc23)cc1	-4	9	1	4.1	0.5	-0.2	0.6	-41
15	CC1=C(C(=O)OCc2ccccc2)C(c2ccc(N3CCOCC3)cc2)NC(=O)N1 (stereo unspecified)	-4	-4	-7	3.2	2.4	-0.6	0.1	5

# Whole records as entered above. Screens in order: Calb FLC, Beta cell apopt, B2AR ag, LANA-H2A inh, RanGTP-Impb inh, UCH37 inh, A1 inh, T cruzi inh
# O=C(NCc1ccccc1)Nc1cccn(Cc2ccccc2Cl)c1=O is entered as 21, -2, -9, -2.1, -0.6, -6.6, -0.7, 24
# COc1ccc(CCN(C)C2CCCN(C(=O)c3ccnn3C)C2)cc1OC (stereo unspecified) is entered as 7, -1, 2, -4.5, 2.3, 0.4, 0.9, 21
# CC(C)c1ccc(-c2nc3c([nH]2)c(=O)n(C)c(=O)n3C)cc1 is entered as -3, 5, -10, -1.5, -1.2, -53, 0.5, -4
# O=C(COc1ccc(NS(=O)(=O)c2ccc(F)cc2)cc1)N1CCOCC1 is entered as -12, -3, 6, 3.5, 1.3, 0.4, 0.1, -2
# CCN(CC)c1ccc(CN(C(=O)c2cc(OC)c(OC)c(OC)c2)C2CCS(=O)(=O)C2)cc1 (stereo unspecified) is entered as -11, 5, -12, -6.5, -1.1, -0.8, 0.2, 6

# Later entries
nr	Molecule	Calb FLC	Beta cell apopt	B2AR ag	LANA-H2A inh	RanGTP-Impb inh	UCH37 inh	A1 inh	T cruzi inh
16	CCN(CCCNC(=O)C1CCN(C(=O)c2cc3sccc3n2C)CC1)Cc1ccccc1	3	-7	-1	2.2	4.7	1.0	-0.6	43
17	CCC(CO)Oc1cc(NC(=O)c2cccc(OC)c2)c2ncn(C(C)C)c2c1 (stereo unspecified)	x	-5	-8	-2.6	x	-1.0	-0.7	x
18	CC(=O)c1c(C)nc(Nc2nc(C)c3cc(C)ccc3n2)nc1C	0	-6	-4	-1.8	2.4	x	-0.3	0
19	CN1CCN(S(=O)(=O)c2ccc(-c3ccc(Cl)cc3)cc2)CC1	u	-2	1	3.3	2.1	-0.2	0.1	8
20	O=C(NCc1cccnc1)c1ccc(NC(=O)c2cccc([N+](=O)[O-])c2)cc1	-3	140*	-1	2.1	-2.1	2.5	-0.6	-32
21	O=C(CNS(=O)(=O)c1ccccc1)NCC(=O)N1CCCCC1	-5	-3	-8	0.5	-2.1	1.4	0.5	-1
22	O=C(CNC(=O)C12CC3CC(CC(C3)C1)C2)N/N=C\c1ccccn1	-2	-1	-7	-1.5	0.4	x	1.4	-8
23	C=CCN(CC=C)C(=S)NC(=O)c1ccc(OC)c(Br)c1	-18	0	3	0.9	-4.1	3.1	0.0	10
24	COc1ccc(S(=O)(=O)NCc2nc3nc(C)cc(C)n3n2)cc1OC	-5	0	2	-0.5	-2.5	6.2	-0.5	-4
25	CN(C)CCNc1c2c(c(C#N)c3nc4ccccc4n13)CCCC2	u	-3	-3	-2.1	-2.7	x	1.4	62*
26	Cn1c(=O)c2c(nc(N3CCCCC3)n2C)n(C)c1=O	-4	0	-1	2.9	0.7	1.7	0.4	-20
27	CS(=O)(=O)c1ccc(N2CCN(C3CC(=O)NC3=O)CC2)cc1 (stereo unspecified)	16	-2	10	-3.5	5.0	0.8	0.0	-38
28	CCc1ccc2oc(=O)cc(CN3CCN(CCO)CC3)c2c1	-2	-11	3	0.4	3.7	-1.9	-0.6	54
29	O=C(OCCN1CCOCC1)c1cccc(F)c1	5	-6	6	-7.6	2.8	0.7	-1.0	0
30	COC(=O)c1cccc(NC(=O)Cc2ccsc2)c1	4	-3	18	-4.0	u	1.5	-0.9	-5

# Looked up above.
# C=CCN(CC=C)C(=S)NC(=O)c1ccc(OC)c(Br)c1 | T cruzi inh = 10
# Cn1c(=O)c2c(nc(N3CCCCC3)n2C)n(C)c1=O | UCH37 inh = 1.7
# COc1ccc(S(=O)(=O)NCc2nc3nc(C)cc(C)n3n2)cc1OC | LANA-H2A inh = -0.5
# CS(=O)(=O)c1ccc(N2CCN(C3CC(=O)NC3=O)CC2)cc1 (stereo unspecified) | B2AR ag = 10

# Going on with the list:
nr	Molecule	Calb FLC	Beta cell apopt	B2AR ag	LANA-H2A inh	RanGTP-Impb inh	UCH37 inh	A1 inh	T cruzi inh
31	CSC(SC)=C(C#N)C(=O)c1ccccc1	-5	-3	70*	12	1.0	x	6.7*	-4
32	Cc1ccc(-c2csc(NC(=O)c3ccccc3Cl)c2C(=O)O)cc1	16	0	7	-4.0	1.2	3.1	-0.6	-6
33	COC(=O)c1sccc1NC(=O)Nc1ccc(C)cc1C	-2	0	3	-1.1	4.7	1.5	-0.5	-7
34	CN(C1CCCCC1)S(=O)(=O)c1ccc(SCC(=O)C(C)(C)C)nc1	x	0	-8	1.9	x	-1.5	0.1	x
35	Cc1ccc(CN(C)Cc2cc(=O)oc3cc(C)c(Cl)cc23)cc1	0	4	-11	-2.2	2.2	3.2	-0.6	11
36	CCc1ccccc1NC(=O)CCNC(=O)Cn1ccc2ccccc2c1=O	0	-6	9	0.1	-0.9	-1.6	-0.8	3
37	O=C1Nc2ccc(F)cc2C12SCCS2	-9	1	11	-1.4	6.0	2.1	0.8	3
38	Cc1ccccc1N1CC(C(=O)Nc2ccc(S(=O)(=O)NCC3CCCO3)cc2)CC1=O (stereo unspecified)	-6	-1	-5	1.7	-1.9	1.4	0.6	3
39	Cc1ccc2c(c1)C(=O)CC(O)(C(F)(F)F)O2 (stereo unspecified)	-13	2	5	1.5	9.7	-14	-0.7	-12
40	CCC(C(=O)Nc1ccc(C(=O)N2CCCC2)cc1)c1ccccc1 (stereo unspecified)	-6	-6	-2	0.0	-2.8	2.8	-0.2	1
41	C=CCOc1ccc(/C=C/C(=O)OCC(=O)NCC(=O)Nc2c(C)cc(C)cc2C)cc1	-13	-1	0	3.1	0.5	-7.0	0.2	-10
42	COc1ccc(-c2c(C)nn3c(N)c(-c4ccccc4)cnc23)cc1OC	44	3	15	1.4	-0.5	-60	-1.0	28
43	Clc1cccc2sc(N3CCOCC3)nc12	-4	3	18	-1.1	5.2	1.6	-1.7	0
44	COc1ccc(OCCC(=O)OCC(=O)NCc2ccccc2)cc1	24	-7	-4	x	3.5	1.7	0.8	-18
45	CC1CCN(C(=O)C(C)NCc2ccc(F)cc2)CC1 (stereo unspecified)	5	-7	-1	2.7	-1.8	x	0.1	u
46	Cc1ccc(C(OC(=O)c2ccco2)C(=O)NC2CCCCC2)cc1 (stereo unspecified)	-36	-3	-4	-5.0	-0.4	1.4	1.2	-27
47	NC(=O)c1cc2cc(Cl)ccc2oc1=Nc1cccc(C(F)(F)F)c1	-1	x	-15	0.2	-0.6	0.9	-0.1	-6
48	O=C(O)COc1ccccc1/C=N/NC(=O)CN1CCN(S(=O)(=O)c2ccc(Br)cc2)CC1	7	-6	-4	3.4	-0.4	x	1.0	9
49	Cc1c(C)c2ccc(OCC(=O)N3CCN(c4cccc(Cl)c4)CC3)cc2oc1=O	-4	-3	-8	0.0	-3.2	-35	-0.2	18
50	O=C(Nc1cccc(-c2nc3ccccc3o2)c1)c1ccc(N2C(=O)C3C4C=CC(C4)C3C2=O)cc1 (stereo unspecified)	7	4	11	-3.2	-1.1	6.2	0.7	20
51	Cc1ccc(NC(=O)c2c(-c3ccccc3Cl)noc2C)nc1	2	-6	-8	-5.1	0.5	4.4	1.0	-3
52	O=C(CSc1n[nH]c(=O)n1Cc1ccco1)N1CCOCC1	-3	x	0	-2.0	2.7	-0.2	0.1	-2
53	COc1cccc(NC(=O)CN(C)S(=O)(=O)c2ccc(C)cc2)c1	-3	0	0	-2.9	0.8	2.0	-0.4	-12
54	Cc1cc(C)n(CC(=O)NNC(=O)CCCOc2ccc(Cl)c(C)c2)n1	-7	-4	5	2.7	2.1	1.5	0.4	-13

# Entries listed above that bear a hit mark in A1 inh.
no. | Compound | B2AR ag | LANA-H2A inh | RanGTP-Impb inh | UCH37 inh | A1 inh
31 | CSC(SC)=C(C#N)C(=O)c1ccccc1 | 70* | 12 | 1.0 | x | 6.7*

# Some entries already given, limited to T cruzi inh:
nr	SMILES	T cruzi inh
48	O=C(O)COc1ccccc1/C=N/NC(=O)CN1CCN(S(=O)(=O)c2ccc(Br)cc2)CC1	9
49	Cc1c(C)c2ccc(OCC(=O)N3CCN(c4cccc(Cl)c4)CC3)cc2oc1=O	18
